Assay outcomes deposited in PubChem BioAssay by several laboratories.
Rce1 inhib – yeast Ras-converting enzyme inhibition. yeast membranes, quenched prenylated peptide cleavage fluorescence. Q03530. calls only. hit rate 0.27% among 290,000;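 active means fall in fluorescence gain of 50% or more versus controls, with final raw signal at or below 3038400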;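 further: plate controls were neutral control wells for no effect and wells lacking membranes for full effect; tested at 10 µM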
UUG fidelity – modulators of start codon recognition fidelity in yeast; activity score, % at 18.7 µM; S. cerevisiae UUG-firefly luciferase reporter, luminescence/redox ratio; hit rate 0.13% among 350,000;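 active means replicate mean at a twofold rise or more, about +100% in these data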;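 further: firefly luciferase made from a UUG start codon reports start codon fidelity; reporter light over untreated wells divided by growth signal over untreated wells; some hits fall short of that in this replicate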
MT1-MMP act inh – blocks activation of human MT1-MMP; HT1080 RFP-PRO-GFP cells, GFP/RFP ratio fluorescence, overnight; percent of plate control window, DMSO zero; GFP/RFP ratio change, % at 20 µM; hit rate 0.061% among 360,000; AID 651647;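 active means GFP/RFP ratio change of at least 30% with cell ATP level not reduced by more than half and red fluorescence within 50% of control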; further: strong numbers were not always called active
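Read-out: GFP/RFP fluorescence ratio; Test system: RFP-PRO-GFP reporter HT1080 cells; Compound dosing: single-point 20 µM compound, 1% DMSO; Times: overnight compound exposure at 37 °C.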
eIF4H FP inh – inhibitors of RNA binding by human eIF4H. eIF4H fluorescence polarization binding assay. hit rate 0.94% among 290,000. inhibition, % at 35 µM. AID 2012. Q15056;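 active means 50% or more with normal probe brightness, or confirmed in later tests; about a fifth of its hits are not listed in these tables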;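 further: calls also rest on retests at 20 µM and on dose response follow-up; 0% = protein and probe with vehicle and 100% = probe without protein; strong numbers were not always called active; many hits fall short of the cut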
HIV Env fusion – inhibitors of HIV Env-mediated cell fusion. inhibition, % at 12.3 µM. hit rate 1.1% among 360,000. HeLa-JRFL Env/CEM21 cell fusion, luciferase;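 active means mean replicate inhibition score of at least 50 and every replicate individually at or above 50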;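 further: 0% = plate neutral controls and 100% = maraviroc near 300 nM; one replicate is shown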
CSC inhib – blocks cancer stem cells; cancer stem cell-like cells viability, luminescence; inhibition, % at 7.5 µM; hit rate 1.1% among 300,000; AID 2717;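 active means mean at 75% or more and at least half the replicates too; tested in HMLE shEcad cells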;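 further: 0% = median of negative and 100% = median of positive control wells; the first replicate is given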
PABP polyA inh – PABP-poly(A) binding inhibition; AID 2014; inhibition, % at 35 µM; hit rate 1% among 290,000; PABP-poly(A) RNA binding, fluorescence polarization;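 active means 50% or more with normal probe brightness, or confirmed in later tests; about a fifth of its hits are not listed in these tables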;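 further: calls also rest on retests at 20 µM and on dose response follow-up; controls were probe without protein and protein plus probe with vehicle; some compounds called inactive have numbers as strong as hits; many hits fall short of the cut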
Target sequence (P11940 whole entry, looked up): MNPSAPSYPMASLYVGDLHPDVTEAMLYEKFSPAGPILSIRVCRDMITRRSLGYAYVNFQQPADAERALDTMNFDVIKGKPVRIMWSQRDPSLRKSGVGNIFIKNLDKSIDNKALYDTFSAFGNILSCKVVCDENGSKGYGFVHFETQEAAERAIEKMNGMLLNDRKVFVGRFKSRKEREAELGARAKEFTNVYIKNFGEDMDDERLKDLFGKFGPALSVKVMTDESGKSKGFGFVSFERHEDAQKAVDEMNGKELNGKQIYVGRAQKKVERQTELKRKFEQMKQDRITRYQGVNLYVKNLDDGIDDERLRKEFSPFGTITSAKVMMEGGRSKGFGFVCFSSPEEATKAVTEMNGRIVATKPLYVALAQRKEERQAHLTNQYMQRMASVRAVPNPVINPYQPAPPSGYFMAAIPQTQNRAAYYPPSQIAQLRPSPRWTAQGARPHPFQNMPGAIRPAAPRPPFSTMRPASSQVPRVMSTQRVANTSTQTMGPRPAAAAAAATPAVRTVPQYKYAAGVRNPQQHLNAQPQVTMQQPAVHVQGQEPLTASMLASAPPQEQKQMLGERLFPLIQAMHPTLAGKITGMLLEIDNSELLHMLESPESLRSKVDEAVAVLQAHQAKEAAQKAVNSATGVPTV
MT1-MMP act inh RFP – recorded beside MT1-MMP act inh, whose call it bears; RFP signal change, %; measured here: RFP expression control read;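 0 = vehicle wells; hits needed this value within 50% of zero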
An asterisk follows results filed as active; i = inactive; · = no result given; & = joins results of further samples.

Start of the data: the first two records, to show the layout:
Value order – Rce1 inhib	UUG fidelity	MT1-MMP act inh	MT1-MMP act inh RFP	eIF4H FP inh	HIV Env fusion	CSC inhib	PABP polyA inh
1. C[C@@H]1CN([C@@H](C)CO)C(=O)CCCn2cc(nn2)CO[C@H]1CN(C)S(=O)(=O)c1ccc2c(c1)OCCCO2
 : ·	-22.0&1.6	0.9	4.0	·	-0.4	·	·
2. COc1ccccc1CN(C)C(=O)COC(=O)c1cc(C)oc1C
 : ·	-13.8	2.9	3.6	·	-8.5	·	·

Main list, from the start:
Value order – Rce1 inhib	UUG fidelity	MT1-MMP act inh	MT1-MMP act inh RFP	eIF4H FP inh	HIV Env fusion	CSC inhib	PABP polyA inh
1. C[C@@H]1CN([C@@H](C)CO)C(=O)CCCn2cc(nn2)CO[C@H]1CN(C)S(=O)(=O)c1ccc2c(c1)OCCCO2
 : ·	-22.0&1.6	0.9	4.0	·	-0.4	·	·
2. COc1ccccc1CN(C)C(=O)COC(=O)c1cc(C)oc1C
 : ·	-13.8	2.9	3.6	·	-8.5	·	·
3. CCn1nnnc1NC(=O)c1cc(OC)c(OC)c(OC)c1
 : i	·	6.9	4.2	-3.8	-12.7	11.8	-6.2
4. Cc1nc(S/C(=C\c2ccc(-c3ccc(C(=O)O)c(Cl)c3)o2)C(=O)O)n[nH]1
 : i	-19.9	-7.3	4.8	74.8*	0.2	·	55.3*
5. Cc1cc(C)cc(N(CC(=O)NCCSc2ccccn2)S(=O)(=O)c2ccccc2)c1
 : i	1.0	-0.5	-5.0	-16.8	·	-6.9	2.2
6. COc1ccccc1NC(=S)N1C2CCC1CC(NC(=O)NC13CC4CC(CC(C4)C1)C3)C2 (stereo unspecified)
 : i	-15.6	7.3	1.4	-0.6	3.8	-8.5	5.8
7. Cc1cc(-c2ccc(C(C)C)c(S(=O)(=O)NCc3ccco3)c2)on1
 : i	·	-3.1	1.7	28.2	-7.4	-21.5	14.6
8. S=c1[nH]nc(Cc2c[nH]c3ccccc23)o1
 : i	-20.8	4.1	5.0	0.8	·	-4.5	1.5
9. CC(=O)c1c(C)[nH]c(C(=O)Nc2cc(C)cc(C)c2)c1C
 : i	·	4.9	1.0	0.1	·	-5.8	11.0
10. COc1ccc(CN2CCCC(CO)(Cc3ccc(F)cc3F)C2)cc1 (stereo unspecified)
 : i	-22.4	5.2	0.4	-2.2	18.4	21.3	-3.5
11. Cc1ccc(S(=O)(=O)N2CCN(C)CC2)cc1
 : i	-20.5	-1.6	0.9	-8.9	-16.7	-9.1	3.1
12. COc1ccccc1C(=O)Oc1ccc(C(C)(C)C)cc1
 : i	-1.0	-2.0	-5.1	-7.2	-93.2	2.3	-6.3
13. CC1=CCC2C(=O)N(c3cccc(C(=O)Nc4ccccc4Cl)c3)C(=O)C2C1 (stereo unspecified)
 : i	0.1	-2.7	-3.8	-17.4	·	-0.8	-4.6
14. CC(C)C(=O)Nc1ccc(NC(=O)c2ccccn2)cn1
 : i	-41.9	10.2	3.4	-4.8	·	-10.4	-2.8
15. COc1cccc(OC)c1-c1nn(-c2ncc(C(F)(F)F)cc2Cl)c(=O)o1
 : i	-15.8	-1.2	-3.2	-13.9	5.9	5.0	-1.3
16. C=CCc1ccc(OCCn2cccc2C=O)c(OC)c1
 : i	·	-2.2	-7.7	-2.9	-81.8	-7.2	3.7
17. O=[N+]([O-])c1ccc(CN2CCN(c3ccccc3Cl)CC2)o1
 : i	-2.8	-0.6	4.7	46.8	-9.4	-8.5	26.7
18. CC(C)N(N=Nc1ccc([N+](=O)[O-])cc1)C(C)C
 : i	·	0.7	3.5	-3.0	7.6	4.5	1.9
19. Cc1c(N=Cc2ccc[nH]2)c(=O)n(-c2ccccc2)n1C
 : i	7.6	0.2	-1.8	-9.5	·	-9.9	5.7
20. c1ccc(Cc2noc(CN3CCC(CN4CCOCC4)CC3)n2)cc1
 : i	-3.1	-4.0	1.3	-8.9	-14.9	11.0	6.2
21. CC(=O)N1CCN(C(=O)c2ccc(C(=O)c3ccccc3)cc2)CC1
 : i	-16.3	-1.0	-1.9	-2.2	0.7	-12.7	3.7
22. Nc1cc(S(=O)(=O)Nc2ccc(Cl)cc2)ccc1N1CCOCC1
 : i	10.1	-3.1	-27.7	3.9	10.5	1.9	3.4
23. CC(=O)NC(=S)Nc1ccc2oc(=O)ccc2c1
 : i	·	0.8	2.3	-4.0	0.3	-11.3	2.8
24. CC(C)CC(NC(=O)c1ccc(Cl)cc1)C(=O)OCc1cc([N+](=O)[O-])cc2c1OCOC2 (stereo unspecified)
 : i	·	-0.1	2.8	-9.0	-15.0	-12.2	-1.9
25. Cc1ccc(S(=O)(=O)N2CCCN(C(=O)c3ccc(-n4cccn4)cc3)CC2)cc1
 : ·	-21.2	-3.9	-4.4	·	·	0.6	·
26. Cc1ccc(NC(=O)C2CCC(=O)N2)cc1C (stereo unspecified)
 : i	-13.8	1.9	3.1	-16.3	-3.3	-5.1	-21.5
27. O=[N+]([O-])c1ccc2c(c1Nc1ccccc1Cl)=NC1(CCCCC1)N=2
 : i	-18.3	11.8	-1.9	-0.3	-0.4	11.3	8.6
28. OCC1OC(n2cnc3c(=S)nc[nH]c32)CC1O (stereo unspecified)
 : ·	-18.3	3.7	3.4	·	30.1	·	·
29. CCc1cc2cc(C)ccc2nc1SCC(=O)N1CC(=O)Nc2ccccc21
 : i	9.2	-7.0	-11.7	-6.9	8.3	3.6	11.1
30. COc1ccccc1Cn1c(=S)[nH]c2ccccc2c1=O
 : i	-17.1	4.3	-3.5	0.1	9.9	19.5	-6.5
31. Cc1cc(C)c(OCC(=O)Nc2nc(-c3ccccn3)cs2)c(C)c1
 : i	-29.8	3.7	3.6	14.7	25.4	-5.7	-24.4
32. CCOc1cc(S(=O)(=O)NCc2ccccc2)c(OCC)cc1-n1cnnn1
 : i	-7.7	4.0	-1.5	·	-19.4	8.7	·
33. CC(C)N(C(=O)NC(=O)Nc1ccccn1)S(C)(=O)=O
 : i	-12.7	2.7	6.4	-4.1	-16.9	-19.9	22.6
34. COc1ccc(CNC(=O)N[C@@H](Cc2c[nH]c3ccccc23)C(=O)O)cc1
 : i	-9.5	-3.5	6.0	3.8	-0.6	-5.1	-1.7
35. CCCc1c(C(=O)N/N=C/C=C/c2ccccc2)nnn1-c1nonc1N
 : ·	-25.5	2.6	0.6	·	13.7	·	·
36. CCCCOc1ccc(CON(C(C)=O)C(C)=O)cc1Cl
 : i	-0.4	-0.5	-2.4	-3.1	1.0	8.0	-9.6
37. CCOC(=O)N1CCN(Cc2nc(-c3ccc(OC)cc3)no2)CC1
 : i	-1.3	9.5	-0.7	·	·	9.3	·
38. COC(=O)[C@@]12CCCCN1[C@H](c1ccc(-c3ccccc3)c(OC)c1)[C@H]1C(=O)N(C)C(=O)[C@H]12
 : ·	-21.4	-0.1	-4.2	·	14.7	·	·
39. O=C(O)c1cccc(Oc2ccccc2[N+](=O)[O-])c1
 : i	·	4.9	8.4	18.4	-9.0	1.6	-1.1
40. COc1ccccc1OCc1cc(C(=O)N(C)CCC2CCCCO2)no1 (stereo unspecified)
 : i	23.3	-3.9	1.1	3.5	-138.4	-10.2	-8.6
41. Cc1ccc2nsnc2c1NS(=O)(=O)c1c(C)ccc2nsnc12
 : i	-2.1	-24.8	5.7	5.6	-31.6	-17.5	3.6
42. CCOC(=O)c1cccc(NS(=O)(=O)c2cnc[nH]2)c1
 : i	-12.2	0.9	-0.3	-14.1	·	-14.2	13.3
43. CCOC(=O)N1CCN(S(=O)(=O)c2ccc(C)c(C(=O)NC3CCCCC3)c2)CC1
 : i	-20.8	-3.0	-12.6	-2.2	-12.6	0.5	-9.7
44. C[C@@H](N)C(=O)NC[C@H]1O[C@@H](n2cnc3c(N)ncnc32)[C@H](O)[C@@H]1O
 : ·	-5.1	1.6	3.8	·	7.5	·	·
45. CCc1nc(SCC(=O)c2c[nH]c3ccccc23)n[nH]1
 : i	·	-8.2	-2.3	20.2	0.9	4.9	-1.6
46. COc1ccc(Nc2ccnc3ccccc23)cc1
 : i	·	-6.3	-4.0	-3.2	·	-5.7	-16.6
47. CC1(C(=O)NCC(F)(F)F)CCN1C(=O)C1(c2ccccc2)CC1 (stereo unspecified)
 : ·	-2.9	-1.1	3.8	·	-6.3	·	·
48. COc1cc2oc(=O)cc(CN3CCN(c4ccccc4OC)CC3)c2cc1Cl
 : ·	-7.6	1.4	-4.9	·	11.6	·	·
49. Cc1cc(C)c2c(c1)CC(C)(C)CC2=O
 : ·	0.5	-2.9	2.4	·	-10.5	·	·
50. CC(C)c1ccc2[nH]c(O)c(N=NC(=S)NCCc3ccccc3)c2c1
 : i	-9.8	3.6	-5.7	6.0	10.0	26.6	-3.4

More structures follow.
Value order – Rce1 inhib	UUG fidelity	MT1-MMP act inh	MT1-MMP act inh RFP	eIF4H FP inh	HIV Env fusion	CSC inhib	PABP polyA inh
51. O=C(CCC(=O)Nc1ccc(Cl)cc1Cl)NNC(=O)Nc1ccccc1
 : i	·	-0.7	0.1	-3.8	-13.5	-12.5	2.7
52. Cc1ccc(-c2[nH]c3cc(C(=O)NCCCn4ccnc4)ccc3c(=O)c2O)cc1
 : i	-9.1	-12.3	-1.3	26.5	-7.6	-3.8	45.7
53. CC1CN=C(Nc2cccc(S(=O)(=O)N(C)C)c2)S1 (stereo unspecified)
 : i	·	-3.3	-3.4	-2.3	18.0	-3.3	3.0
54. CCC1=NN=C(c2ccc(F)cc2)C(c2c[nH]c3ccccc23)N1O (stereo unspecified)
 : i	-40.7	-5.6	-18.4	-3.2	102.9*	-20.1	-5.1
55. O=C1NCCc2cc3c(cc21)OCO3
 : i	4.4	2.7	3.1	-0.5	-9.0	17.7	-4.6
56. CC1=Nc2ccccc2N=C(NC(=O)CN2CCN(c3ccccc3)CC2)C1c1ccccc1 (stereo unspecified)
 : i	·	-1.4	1.9	-0.5	26.2	10.7	-8.1
57. Cc1ccc(NC(=O)CN2C(=O)c3ccccc3S2(=O)=O)cc1C
 : i	3.0	1.2	2.6	-13.2	2.6	-8.8	-0.4
58. CN(C(=O)COC(=O)C1c2ccccc2Oc2ccccc21)C1CCS(=O)(=O)C1 (stereo unspecified)
 : i	4.7	3.8	7.7	5.2	·	-16.8	4.2
59. Nc1nc(Cl)cc(NCCc2ccc(O)cc2)n1
 : i	·	3.7	-5.5	23.3	-25.3	17.1	-5.8
60. COc1ccc2c(C)cc(=O)sc2c1
 : ·	-12.8	1.9	1.8	·	-0.8	·	·
61. CC12CCC(C(=O)N(c3nccs3)C1=O)C2(C)C (stereo unspecified)
 : ·	-5.2	3.6	1.7	·	1.9	·	·
62. O=C(NNC(=O)c1ccc(Br)s1)c1cccc(S(=O)(=O)N2CCCC2)c1
 : ·	-32.0	7.1	-7.9	·	2.1	-7.8	·
63. Cc1nc(C)c(CC(=O)N2CCc3c([nH]c4ccccc34)C2c2ccccn2)s1 (stereo unspecified)
 : i	·	2.2	1.3	14.6	10.3	-6.6	-0.6
64. O=S(=O)(c1ccccc1)c1nc(-c2ccco2)oc1N1CCCCCC1
 : ·	-15.7	-1.3	-1.4	5.9	·	-17.2	-2.9
65. CN1CCc2c(sc(NC(=O)C3CCCN3S(=O)(=O)c3ccc(Cl)s3)c2C(N)=O)C1 (stereo unspecified)
 : i	-3.2	3.7	0.4	·	-11.6	-10.7	·
66. CCOC(=O)NC(=O)CSc1nnc(SCCC(=O)O)s1
 : i	-0.9	1.4	1.6	1.5	-11.0	0.3	1.6
67. CCOC(=O)c1c(NC(=O)CSc2nnc(-c3c[nH]c4ccccc34)n2CCOC)sc2c1CCCC2
 : i	-9.8	-3.1	-14.8	-12.2	14.0	-6.1	3.0
68. Cc1cc(C)c(S(=O)(=O)N2CCN(C(=O)CN3C(=O)NC4(CCCC4)C3=O)CC2)c(C)c1
 : i	-6.2	0.9	-2.0	-14.6	-25.4	-3.5	1.8
69. Cc1ccc(NC(=O)COC(=O)Cn2cnc3c2c(=O)n(C)c(=O)n3C)c(Cl)c1
 : i	·	-1.4	3.4	-2.5	-9.8	-9.6	-5.3
70. CCOc1ccc(-c2cc(N)n(S(=O)(=O)c3cccc4nsnc34)n2)cc1
 : i	-7.8	-0.4	-4.9	-6.1	63.8*	-4.7	10.0
